# ClpP mod – qHTS Assay for Activators of ClpP; Potency, µM (top dose mostly 57.5 µM), for the others: top-dose activity change, negative = active; ATP-dependent Clp protease proteolytic subunit (Bacillus subtilis (strain 168)), P80244; purified B. subtilis ClpP, FRET peptide cleavage, 20 min; 340,000 compounds, 1.9% hits; active = well fitted falling curve with a large enough effect; inconclusive = small, poorly fitted or top-dose-only effect; inactive = no such curve, though single readings can be large or run the other way; also: potency is read from the fitted curve at half-maximal effect; the source files actives as falling curves though it sought activators and does not explain the sign; nearly all actives have a fitted effect of over 65% in size; many hits overshoot -100%
# Target sequence (P80244 whole entry, looked up): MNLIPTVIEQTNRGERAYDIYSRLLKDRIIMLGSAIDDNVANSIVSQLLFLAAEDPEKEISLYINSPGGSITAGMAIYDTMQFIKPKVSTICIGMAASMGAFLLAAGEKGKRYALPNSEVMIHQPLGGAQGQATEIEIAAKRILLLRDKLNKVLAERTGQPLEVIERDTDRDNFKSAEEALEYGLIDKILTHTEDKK
#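 FRET quenching reversal measured ClpP activation: 10 microg/mL B. subtilis ClpP at pH 8 with the FRET-FV decapeptide, read at 430 nm after 320 nm excitation. The 20-min minus 0-min signal was scaled between DMSO/no-enzyme wells and ADEP (5.8 microM final).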
# TRPML1 inh – inhibitors of human TRPML1 channel. Q9GZU1. TRPML1-inducible cells, Ca2+ dye fluorescence, FDSS; stronger effect = lower value; inhibition of EC80 agonist-evoked calcium signal. activity change, negative = inhibition, % (no concentration beside the values). 390,000 compounds, 0.02% hits; in the data active means activity change below about -50%; inconclusive means about -30% to -50%; inactive means above about -30%;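 also: stimulus is agonist 54-4 at its EC80 concentration; % is scaled to controls: 0 for no effect and ±100 for the full control effect; compound concentration not given in the record; the text of the record puts the active cut at -80%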
# Target sequence (Q9GZU1 whole entry, looked up): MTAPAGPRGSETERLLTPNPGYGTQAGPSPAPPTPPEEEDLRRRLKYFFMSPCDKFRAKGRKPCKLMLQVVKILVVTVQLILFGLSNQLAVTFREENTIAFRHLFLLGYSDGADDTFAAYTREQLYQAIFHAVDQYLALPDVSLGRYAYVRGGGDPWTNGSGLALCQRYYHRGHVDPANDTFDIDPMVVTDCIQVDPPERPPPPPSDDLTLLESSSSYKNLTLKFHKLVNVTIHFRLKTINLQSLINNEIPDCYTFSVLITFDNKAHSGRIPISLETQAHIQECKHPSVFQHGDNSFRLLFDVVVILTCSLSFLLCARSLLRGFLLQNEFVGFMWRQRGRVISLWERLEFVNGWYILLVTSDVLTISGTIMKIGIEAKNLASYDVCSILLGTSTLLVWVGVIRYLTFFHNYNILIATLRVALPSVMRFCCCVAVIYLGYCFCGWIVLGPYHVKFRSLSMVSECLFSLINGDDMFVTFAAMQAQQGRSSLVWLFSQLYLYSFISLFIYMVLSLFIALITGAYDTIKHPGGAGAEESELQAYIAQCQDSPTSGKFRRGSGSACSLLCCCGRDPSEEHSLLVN
#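 TRPML1-DL cells, Tet-induced overnight (~16 h, 37 °C) at 1,500 cells/well, were loaded with Ca8 no-wash dye plus quencher for 45-90 min at room temperature. Compounds were pinned during FDSS kinetic reading; agonist 54-4 at EC80 (4 uM final) then added.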
# gsp antagonist – gsp mutant antagonism | gsp-mutant cells, cAMP HTRF, 30 min; control for the full effect not named in the record | Potency, µM (top dose mostly 76.9 µM), inactives show at the top dose activity change, negative = inhibition, hits mostly inhibitors | 340,000 compounds, 0.4% hits | AID 624288; active = falling curve of any shape with a large fitted effect; inconclusive = falling curve, mostly with a smaller effect; inactive = flat or rising curve; cell line not stated here;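 also: intracellular cAMP measured with PDE inhibitor Ro 20-1724 present during compound exposure; potency is read from the fitted curve at half-maximal effect; % is scaled to controls: 0 for no effect and ±100 for the full control effect; nearly all actives have a fitted effect of over 65% in size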
#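 G418-selected cells were plated in DMEM/10% FBS for 16-24 h at 37C, then treated with compounds plus the PDE inhibitor […] (300 uM solution added) for 30 min at 37C. Intracellular cAMP was measured by HTRF after 30 min lysis at room temperature.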
# gsp agonist – activates gsp, the McCune-Albright syndrome mutation; Potency, µM (doses to about 76.9 µM), without a hit: at the top dose activation (cAMP increase), hits mostly activators; 340,000 compounds, 0.13% hits; gsp mutant cells, cAMP HTRF, 30 min; control for the full effect not named in the record; AID 624287; active = well fitted activation curve with a large enough effect; inconclusive = small, poorly fitted or top-dose-only effect, or another doubt; inactive = no such curve, though single readings can be large or run the other way; cell line not stated here;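 also: phosphodiesterase inhibitor Ro 20-1724 added with compounds to block cAMP breakdown; potency is read from the fitted curve at half-maximal effect; nearly all actives have a fitted effect of over 60% in size; about a fifth of the inactives were tested at one dose only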
#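 Cells stably selected in G418 were plated at 2000/well, grown 16-24 hr, then given compounds in DMSO with the PDE inhibitor […] (300 uM solution added) for 30 min at 37C; cAMP was read by HTRF.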
# TRPML1 agonist – human mucolipin-1 channel agonism | Q9GZU1 | TRPML1-expressing cells, Ca2+ dye fluorescence, FDSS; host cell line not named in the record; reference of the full effect not given here | activation, % (concentration not given with the values) | 410,000 compounds, 0.12% hits | AID 624414; in the data active = activation above about 50%; inconclusive = about 30% to 50%; inactive = below about 30%; also: 0% is about no effect; the text of the record puts the active cut at 80%
#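 Tet-induced TRPML1-DL cells, 1,500 per well, cultured overnight, were loaded with a no-wash Ca2+ dye for 45–90 min. Calcium fluorescence was recorded on the FDSS for 110 s after compound addition, before the EC80 agonist (4 uM 54-4) was added.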
# Menin-MLL FL inh – displaces fluorescein MLL peptide from human menin; Fluorescence polarization, fluorescein-MLL peptide displacement from menin; FP activity change, % at 61.4 µM; 290,000 tested, under 10 active; AID 1766; inconclusive = falling polarisation curve, or a change in total fluorescence; inactive = total fluorescence flat and polarisation flat or rising; no compound was filed as active; the % refers to the polarisation; negative = inhibition;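 also: % of control where 0% means no effect; inhibitors lower the polarisation; unlabelled MLL peptide was the positive control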
# * marks the source's active call; other numbers are inactive results; ? = inconclusive; / = not tested or not shown; & = joins results of further samples; [ ] = another dose, or the depositor's remark.
SMILES,ClpP mod,TRPML1 inh,gsp antagonist,gsp agonist,TRPML1 agonist,Menin-MLL FL inh
Cc1ccccc1C(=O)N1CCN(c2ccc(NC(=S)NC(=O)c3cccs3)cc2)CC1,-1.6%,-1,-9%,-14%,0.0,3.9
CNc1ccccc1C(=O)OCC(C)=O,4.1%,4,9%,-145%[inhibitor],-0.3,-1.7[11.7 µM]
O=C(NCCCN1CCCC1=O)c1cccc(S(=O)(=O)Nc2ccc(F)cc2)c1,-3.2%,37,6%,28%,1.8,/
CN(C)CCNC(=O)CNC(=S)N(Cc1ccccc1)Cc1ccccc1F,/,-24,1%,-18%[15.4 µM],-0.5,-0.3
COC(=O)[C@H](C)NC(=O)/C=C/c1ccc(OC)cc1,/,8,-8%,4%,0.0,0.4
Cc1cc(NC(=O)CCNS(=O)(=O)c2cccc3nsnc23)ccc1Br,-4.4%,0,/,/,2.3,/
O=C(Cn1c(=O)n(Cc2ccc3c(c2)OCO3)c(=O)c2oc3ccccc3c21)Nc1ccc(F)cc1,?,18,/,/,-0.6,/
C=CCNC(=S)NNc1nc2c(c(=O)[nH]1)C1(CCCC1)Cc1ccccc1-2,-15%,-14,-7%,-146%[inhibitor],0.3,6.5
CC(C)Cn1c(=O)c2sccc2n2c(CCCC(=O)Nc3ccc(Cl)cc3)nnc12,-13%,2,/,/,-0.9,/
CCOc1cc(/C=N/NC(=O)CN2CCCCC2)ccc1OCc1cccc(Cl)c1,-11%,7,22%,-12%,0.8,-2.0
CCCc1cc(=O)[nH]c(Nc2ccc(O)cc2C)n1,-0.2%,24,/,/,-0.3,/
C#Cc1ccc([C@@H]2C=C(C(=O)OCC=C)O[C@H](OCc3ccc(CO)cc3)C2)cc1,-5.0%,-8,-9%,/,-0.3,6.4
CC(=O)Nc1ccc2c(c1)C(C)(C)C(C)N2C (configuration not stated),/,-12,2%,-8%,-0.2,-1.3
Cc1ccc(C)c(OCC(=O)Nc2ccc(S(=O)(=O)Nc3ncccn3)cc2)c1,/,9,-8%,-5%[15.4 µM],0.3,-0.8
Cc1ccc(NC(=O)CSc2nc(-c3ccc(F)cc3)cc(C(F)(F)F)c2C#N)cc1,-15%,9,/,/,2.6,/
COCCN(C(=S)Nc1ccc(C)cc1)C(C)c1ccco1 (configuration not stated),/,-10,-7%,-5%[15.4 µM],0.2,2.6
Cn1c(CNC(=O)CNC(=O)c2ccc(F)cc2)cc(=O)n(C)c1=O,-17%,53,4%,-19%,0.7,/
COc1cc(OC)cc(C(=O)Nc2ccc(S(=O)(=O)N3CCCCC3c3cccnc3)cc2)c1 (configuration not stated),-23%,-3,/,/,0.9,/
O=C(c1ccc(S(=O)(=O)Cc2ccccc2Cl)c([N+](=O)[O-])c1)N1CCN(c2ccccn2)CC1,/,-6,-78%,26%[15.4 µM],-1.4,1.2
Cc1ccc(S(=O)(=O)Nc2ccc3c(c2)C(=O)N([C@H](C)CO)C[C@H](C)[C@@H](CN(C)Cc2ccc(-c4ccccc4)cc2)O3)cc1,-0.2%,-9,?,/,-0.4,/
O=C(Cc1ccccc1)NNC1CC(=O)N(c2ccc(Cl)cc2)C1=O (configuration not stated),0.3%,11,-1%,-5%[15.4 µM],-0.5,0.5
CCCC1C(c2ccc(OC)cc2)C(C#N)(C#N)C2(C#N)CC1(N)NC2=O (configuration not stated),1.6%,12,-9%,-1%,-0.5,0.9
CC(Oc1ccc2c(-c3ccccc3)cc(=O)oc2c1)C(=O)NC(Cc1c[nH]c2ccc(O)cc12)C(=O)O (configuration not stated),-7.8%,-4,1%,-11%,0.6,-2.1
COc1cccc(C2CC(c3ccc(C)cc3)n3ncnc3N2)c1 (configuration not stated),-1.0%,-6,3%,-18%,1.0,0.0
CCC(=O)Nc1sc(C(=O)OC)c(C)c1C(=O)OC,1.3%,-12,4%,3%,-0.5,1.6
# Following part.
SMILES,ClpP mod,TRPML1 inh,gsp antagonist,gsp agonist,TRPML1 agonist,Menin-MLL FL inh
CC(=O)c1cccc(NC(=O)N2CCCC2C(=O)Nc2ccc3c(c2)OCO3)c1 (configuration not stated),-2.3%,-11,0%,19%,5.3,-2.5
Cc1ccc(C(=O)NCC(=O)Nc2ccccc2C)o1,0.7%,-14,/,-76%[inhibitor],-0.3,/
Cc1ccc(OCC(=O)NNC(=O)CSc2ncnc3sc(C)c(C)c23)cc1,2.6%,-12,2%,10%,-0.1,2.8
CC(C)Oc1ccc(S(=O)(=O)N2CCOCC2)cc1NC(=O)c1cccc(S(=O)(=O)N2CCCC2)c1,-0.7%,4,-20%,?,1.2,/
CN(C)CCNc1c2c(nc3ccccc13)CCC2,12%,15,1%,-22%,-0.4,-0.7
Cc1cc(C)n(C(=O)CNC(=O)c2cccs2)n1,1.6%,-9,-3%,1%,0.1,-4.3
O=C(Nc1cccc(C(F)(F)F)c1)C1CCN(S(=O)(=O)c2cccs2)CC1,0.4%,-6,/,/,1.3,/
CCc1ccc(Nc2nc3c(S(=O)(=O)c4ccc(C)cc4)nnn3c3ccsc23)cc1,-44%,14,/,/,0.7,/
COc1ccc(C2CC(=O)N(C)c3ccccc3S2)cc1OC (configuration not stated),/,-4,5%,10%,-1.1,-2.0
NC(=O)c1ncn([C@@H]2O[C@H](CNCc3cccc(OC4CCCC4)c3)[C@@H](O)[C@H]2O)n1,-5.3%,17,4%,/,-0.8,/
CCc1ccc(N(CC(=O)NC(C)(C)C)C(=O)CNC(=O)c2cccs2)cc1,/,9,/,0%[15.4 µM],-0.7,1.3
O=C(c1ccco1)N1CCN(S(=O)(=O)c2ccc(Oc3ccccc3)cc2)CC1,-1.7%,36,-24%,2%,4.1,0.2
COc1ccc(C(=O)COc2ccc(F)cc2)c(O)c1C,/,-11,-2%,8%[15.4 µM],-0.2,-3.4
COc1ccc(S(=O)(=O)N2CCOCC2)cc1NC(=O)COC(=O)c1[nH]c(C)c(C(C)=O)c1C,/,-2,3%,-1%,1.5,/
O=C(COc1ccc2ccc(=O)oc2c1)NCCCN1CCCC1=O,3.9%,2,11%,66%,0.1,/
O=C(O)CCC(=O)c1cccc2ccccc12,-5.2%,16,1%,-39%[inhibitor],-0.8,0.0
CSc1ccc(/C=C(\C(=O)O)c2ccc(S(=O)(=O)N3CCCCC3)s2)cc1,-9.7%,6,?,25%,0.8,8.3
Cc1cc(N)cc(C)c1-c1c(Br)cc(N)cc1Br,-15%,-10,12%,-5%,2.1,/
CN(C)c1ccc(C(=O)OCC(=O)NC2CCCCC2)cc1,-19%,6,-7%,-5%,-1.3,-0.7
CCOC(=O)C1CCN(C(c2ccccc2)c2c(O)cc(C)n(Cc3ccco3)c2=O)CC1 (configuration not stated),-0.1%,-3,/,/,0.5,/
CCOC(=O)c1[nH]c(C)c(CCC(=O)Nc2cc(Cl)ccc2C)c1C,-2.0%,0,/,/,-1.0,/
Cc1cc(C)cc(NC(=O)c2cc(S(=O)(=O)N3CCc4ccccc43)cn2C)c1,70%,39,/,/,2.4,/
O=C(N=C1SC2CS(=O)(=O)CC2N1c1c(Cl)cccc1Cl)C1CC1 (configuration not stated),-1.0%,16,5%,?,-0.5,0.7
Nn1c(SCC(=O)N2CCCC2)nnc1-c1cccs1,-12%,-21,/,22%,0.0,/
CN(Cc1nc(-c2cnccn2)no1)Cc1n[nH]c2c1CCCCC2,0.3%,/,18%,-1%,/,2.1
# (cont.)
SMILES,ClpP mod,TRPML1 inh,gsp antagonist,gsp agonist,TRPML1 agonist,Menin-MLL FL inh
O=C(NCCN1C(=O)S/C(=C\c2ccc(Cl)cc2Cl)C1=O)C1=COCCO1,-3.2%,2,-22%,-36%[inhibitor],0.5,/
O=C(CC(C(=O)O)P(=O)(c1ccccc1)c1ccccc1)c1ccc(Br)cc1 (configuration not stated),/,-2,6%,-2%[15.4 µM],0.4,0.2
CC(C)CNC(=O)CSc1nnc(-c2cccc(S(=O)(=O)N3CCCCC3)c2)o1,-2.2%,-16,-13%,1%,1.7,6.1
CN(Cc1ccccc1)C(=O)COC(=O)CCN1C(=O)C2CC=CCC2C1=O (configuration not stated),-2.0%,29,-12%,-27%,3.0,/
COc1ccc(/C=C2\SC(=N)N(c3nccs3)C2=O)cc1OC,/,-6,3%,?,-0.4,?
C/C(=N\NS(C)(=O)=O)c1ccccc1,-0.6%,0,15%,-3%,0.3,-0.2
COCC(=O)N(CCc1ccc(OC)cc1)Cc1nc2ccccc2c(=O)[nH]1,-0.1%,6,2%,4%,-1.2,-0.2
O=C(CNC(=O)N1CC(=O)Nc2ccccc21)NCc1ccccc1,-2.6%,20,11%,?,-0.7,/
COc1cc2c(cc1C=O)OC(C)C2 (configuration not stated),1.3%,-18,14%,-15%,1.2,0.5
CCOC(=O)CCc1c(C)nc2cc(-c3ccc(Cl)cc3)[nH]n2c1=O,?,-8,3%,-11%,-0.2,-1.3
CC(=O)Cn1c2ccccc2n2nc(CCC(=O)O)c(=O)nc12,/,4,11%,-6%[15.4 µM],-0.7,-1.4
CC1CCCCC1NC(=O)COC(=O)c1ccc2ncsc2c1 (configuration not stated),-5.9%,-23,1%,23%,2.8,/
O=C(CSc1nnc(-c2ccccc2)o1)Nn1cnnc1,-0.6%,14,?,10%,0.0,2.1
CC1CCN(c2ccc(NC(=O)Cc3ccccc3)cc2)CC1,/,-51*,12%,-34%[inhibitor],-0.2,0.8
CCOc1ccc(S(=O)(=O)NCc2ccccc2Cl)cc1C(N)=O,?,16,0%,1%[15.4 µM],-0.4&0.1,-4.8
Cc1cc(C)cc(NC(=S)NCc2cccs2)c1,-2.7%,-11,3%,-25%,1.9,2.5

# Single records, from the list above. Order of values: ClpP mod	TRPML1 inh	gsp antagonist	gsp agonist	TRPML1 agonist	Menin-MLL FL inh
# CC(=O)Nc1ccc2c(c1)C(C)(C)C(C)N2C (configuration not stated) across the screens: /	-12	2%	-8%	-0.2	-1.3
# CCOC(=O)C1CCN(C(c2ccccc2)c2c(O)cc(C)n(Cc3ccco3)c2=O)CC1 (configuration not stated) across the screens: -0.1%	-3	/	/	0.5	/

# Five entries drawn at random from the list so far:
SMILES,ClpP mod,TRPML1 inh,gsp antagonist,gsp agonist,TRPML1 agonist,Menin-MLL FL inh
COCC(=O)N(CCc1ccc(OC)cc1)Cc1nc2ccccc2c(=O)[nH]1,-0.1%,6,2%,4%,-1.2,-0.2
CCOc1ccc(S(=O)(=O)NCc2ccccc2Cl)cc1C(N)=O,?,16,0%,1%[15.4 µM],-0.4&0.1,-4.8
O=C(CNC(=O)N1CC(=O)Nc2ccccc21)NCc1ccccc1,-2.6%,20,11%,?,-0.7,/
Cc1cc(C)cc(NC(=S)NCc2cccs2)c1,-2.7%,-11,3%,-25%,1.9,2.5
CC1CCN(c2ccc(NC(=O)Cc3ccccc3)cc2)CC1,/,-51*,12%,-34%[inhibitor],-0.2,0.8

# Screens from PubChem BioAssay.
